High-throughput results from PubChem BioAssay.
D2 agonist – human D2 receptor agonism in beta-arrestin assay; DiscoveRx PathHunter D2 beta-arrestin, luminescence, 90 min; 100% = 57 uM dopamine signal; activation, % (test concentration not listed); hit rate 0.084% among 360,000; AID 624465; in the data active = activation above about 40%; inconclusive = about 15% to 40%; inactive = below about 15%; further: compound concentration not given in the record; the text of the record calls up to 30% inactive
Target sequence (P14416 whole entry, looked up): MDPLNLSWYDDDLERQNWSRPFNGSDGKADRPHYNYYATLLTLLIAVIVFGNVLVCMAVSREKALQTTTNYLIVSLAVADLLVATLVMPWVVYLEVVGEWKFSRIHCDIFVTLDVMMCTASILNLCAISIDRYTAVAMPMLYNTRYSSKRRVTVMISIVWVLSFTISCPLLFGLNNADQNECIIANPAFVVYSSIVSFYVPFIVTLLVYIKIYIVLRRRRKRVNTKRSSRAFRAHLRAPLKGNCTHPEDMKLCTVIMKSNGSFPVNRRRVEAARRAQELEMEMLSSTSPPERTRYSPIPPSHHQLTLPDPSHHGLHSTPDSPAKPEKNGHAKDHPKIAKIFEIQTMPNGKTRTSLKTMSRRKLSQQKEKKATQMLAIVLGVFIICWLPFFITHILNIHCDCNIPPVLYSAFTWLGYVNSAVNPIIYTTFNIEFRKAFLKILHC
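DiscoveRx PathHunter D2 beta-arrestin cells (2,100/well) attached overnight, then compound-stimulated 90 min at 37 C in HBSS/10 mM HEPES/0.1% Tween-20 buffer; beta-galactosidase complementation read by luminescence after 1 h at ambient temperature. Dopamine 57 uM final (EC100) as control.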
PINK1 expr mod – PINK1 expression modulation. PINK1 immunofluorescence, high-content cytometry, 24 h. Potency, µM (titrated, usually from 76.6 µM), without a hit: at the highest dose activation (PINK1 increase), usual class: activators. hit rate 0.2% among 410,000. AID 624263; active = well fitted activation curve with a large enough effect; inconclusive = small, poorly fitted or top-dose-only effect; inactive = flat fitted curve, though single readings scatter; cell line not stated here;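 further: potency means the concentration at half of the fitted maximal effect; % of control where 0% means no effect; nearly all actives have a fitted effect of over 65% in size; a mitochondrial uncoupler was the plate control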
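PINK1 protein, normally rapidly degraded, was detected by immunofluorescence after 24 hour compound treatment of a stable cell line. Titration data (5 concentrations) came from laser-scanning cytometry, with CCCP-treated wells as controls.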
Menin-MLL FL inh – inhibitors of human menin-MLL interaction, wild-type MLL peptide. Fluorescence polarization, fluorescein-MLL peptide displacement from menin. FP activity change, % at 61.4 µM. 290,000 tested, under 10 active; inconclusive = falling polarisation curve, or a change in total fluorescence; inactive = total fluorescence flat and polarisation flat or rising; no compound was filed as active; the % refers to the polarisation; negative = inhibition;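 further: % of control where 0% means no effect; inhibitors lower the polarisation; unlabelled MLL peptide was the positive control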
Sfp PPTase inh – inhibitors of Bacillus subtilis Sfp phosphopantetheinyl transferase. Q9F4F7. Biochemical Sfp PPTase activity, qHTS. Potency, µM, for inactives: max response, negative = inhibition, most hits filed as inhibitors. hit rate 3.5% among 310,000; active means well fitted inhibition curve with a large enough effect; inconclusive means small, poorly fitted or top-dose-only effect, or another doubt; inactive means no such curve, though single readings can be large or run the other way;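 further: the enzyme is Sfp with the accession as filed and its product quenches rhodamine fluorescence; potency means the concentration at half of the fitted maximal effect; 0% = enzyme reaction without inhibitor and -100% = no enzyme wells; top concentration of the series not given in the record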
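Step 1, compound plus 15 nM Sfp-PPTase, 15 min, room temperature. Step 2, add rhodamine-CoA (5 uM) and BHQ-2-YbbR (12.5 uM). Step 3, read 525/598 nm fluorescence at 0 and 30 min.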
gsp ag – gsp mutant agonism; gsp mutant cells, cAMP HTRF, 30 min; control for the full effect not named in the record; Potency, µM (top dose mostly 76.9 µM), inactives show at the top dose activation (cAMP increase), usual class: activators; hit rate 0.13% among 340,000; AID 624287; active = well fitted activation curve with a large enough effect; inconclusive = small, poorly fitted or top-dose-only effect, or another doubt; inactive = no such curve, though single readings can be large or run the other way; cell line not stated here;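 further: phosphodiesterase inhibitor Ro 20-1724 added with compounds to block cAMP breakdown; potency means the concentration at half of the fitted maximal effect; nearly all actives have a fitted effect of over 60% in size; about a fifth of the inactives were tested at one dose only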
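Cells stably selected in G418 were plated at 2000/well, grown 16-24 hr, then given compounds in DMSO with the PDE inhibitor […] (300 uM solution added) for 30 min at 37C; cAMP was read by HTRF.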
ClpP mod – qHTS Assay for Activators of ClpP; AID 651965, 2013; purified B. subtilis ClpP, FRET peptide cleavage, 20 min; hit rate 1.9% among 340,000; Potency, µM (top dose mostly 57.5 µM), inactives show top-dose activity change, negative = active; ATP-dependent Clp protease proteolytic subunit (Bacillus subtilis (strain 168)), P80244; active = well fitted falling curve with a large enough effect; inconclusive = small, poorly fitted or top-dose-only effect; inactive = no such curve, though single readings can be large or run the other way; further: potency means the concentration at half of the fitted maximal effect; the source files actives as falling curves though it sought activators and does not explain the sign; nearly all actives have a fitted effect of over 65% in size; many hits overshoot -100%
Target sequence (P80244 whole entry, looked up): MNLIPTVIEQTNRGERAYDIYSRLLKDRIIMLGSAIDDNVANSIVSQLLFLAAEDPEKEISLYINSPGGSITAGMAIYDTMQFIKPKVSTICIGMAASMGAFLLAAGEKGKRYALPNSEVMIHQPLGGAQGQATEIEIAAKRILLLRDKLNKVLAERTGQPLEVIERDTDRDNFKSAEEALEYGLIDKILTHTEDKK
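FRET quenching reversal measured ClpP activation: 10 microg/mL B. subtilis ClpP at pH 8 with the FRET-FV decapeptide, read at 430 nm after 320 nm excitation. The 20-min minus 0-min signal was scaled between DMSO/no-enzyme wells and ADEP (5.8 microM final).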
gsp antag – gsp mutant antagonism; gsp-mutant cells, cAMP HTRF, 30 min; control for the full effect not named in the record; Potency, µM (highest dose often 76.9 µM), without a hit: top-dose activity change, negative = inhibition, usual class: inhibitors; hit rate 0.4% among 340,000; active = falling curve of any shape with a large fitted effect; inconclusive = falling curve, mostly with a smaller effect; inactive = flat or rising curve; cell line not stated here;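 further: intracellular cAMP measured with PDE inhibitor Ro 20-1724 present during compound exposure; potency means the concentration at half of the fitted maximal effect; on the % scale 0 is the no-effect control and ±100 the full control effect; nearly all actives have a fitted effect of over 65% in size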
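Measurement of cellular cAMP by homogeneous time-resolved fluorescence following a 30 min compound exposure at 37C. The PDE inhibitor […] was present throughout; the assay buffer was DPBS with 0.05% BSA and 0.005% Tween 20.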
Active calls of the source: *; ? = inconclusive; / = not tested or not shown; & = joins results of further samples; [ ] = remark or other dose.

SMILES | D2 agonist | PINK1 expr mod | Menin-MLL FL inh | Sfp PPTase inh | gsp ag | ClpP mod | gsp antag
Cc1ccc2c(C)c(C(=O)N3CCC(C(N)=O)(N4CCCCC4)CC3)oc2c1C | -6.7 | 2.6% | / | / | -47.2%[inhibitor] | -0.9% | /
COC(=O)/C(C#N)=C/c1c(Oc2cccc(C)c2C)nc2ccccn2c1=O | -6.7 | -2.0% | 0.6 | 2.9% | -14.5%[15.4 µM] | -0.1% | -3.7%
COC(=O)c1cc2sccc2n1Cc1ccc(C)cc1 | -0.1 | 4.5%[38.3 µM] | 2.8 | -4.1% | -0.4% | -6.5% | -25.9%
CC1(C)CC(=O)C(C=NCCN2CCOCC2)=C(O)C1 | -5.0 | / | -1.7 | 11.0% | -63.9%[inhibitor] | -1.6% | 5.2%
CCOC(CCNC(=O)c1cc(-c2cccs2)nc2ccccc12)OCC | 4.1 | 0.9% | 2.0 | 15.0% | ? | 3.7% | 2.9%
CC(=O)c1c(C)[nH]c(C(=O)OCC(=O)Nc2c(C)n(C)n(-c3ccccc3)c2=O)c1C | 0.9 | -4.3% | / | / | -4.6%[15.4 µM] | / | 8.6%
COc1cc(C(=O)NCCNC(=O)c2cc(OC)c(C)c(OC)c2)cc(OC)c1C | -11.5 | 1.5% | 5.6 | 25.1% | -1.5%[15.4 µM] | -4.4% | 10.8%
CC1=CCC(Cc2nc3ccccc3o2)C1(C)C (configuration not stated) | -0.4 | 2.7% | 1.7 | -13.3% | -50.3%[inhibitor] | 2.0% | -9.5%
CCNC(=O)COC(=O)C1CCN(S(=O)(=O)c2ccc3c(c2)OCCO3)CC1 | 0.0 | 1.3% | / | / | 21.6%[15.4 µM] | / | -2.0%
CN(C)c1ccc(P(=O)(OC2CCCCC2)C(O)c2ccncc2)cc1 (configuration not stated) | 2.1 | -0.4% | -1.7 | 5.5% | 4.8%[15.4 µM] | 0.6% | 7.7%
CCOc1cc(/C=C(/NC(C)=O)C(=O)O)cc(Cl)c1OCc1cccc(Br)c1 | -3.9 | 3.2% | 3.1 | 2.9% | 4.5%[15.4 µM] | / | -9.3%
Cc1cccc(Cl)c1NC(=S)NCCc1ccccn1 | 0.0 | 1.2% | -0.8 | 5.1% | -11.7%[15.4 µM] | / | 11.7%
COc1ccc(C(=O)NC(=S)Nc2cccnc2)cc1Cl | -3.4 | 0.6% | 1.7 | 2.1% | -10.4%[15.4 µM] | / | 6.0%
C/C(N)=C(/C#N)C(=O)COC(=O)Cc1coc2ccc3ccccc3c12 | -7.4 | 5.6% | 3.1 | 16.0% | -1.7%[15.4 µM] | / | -66.5%
C/C(=N\Oc1cccc(F)n1)c1ccc(Cl)cc1Cl | -1.7 | -0.1% | 3.9 | -8.8% | -26.1% | 0.7% | -0.6%
Fc1ccc(-n2nnc(-c3ccccc3Cl)n2)cc1 | -1.5 | 3.1% | 1.4 | 3.1% | -59.4%[inhibitor] | / | 5.1%
O=C(CCS(=O)(=O)Cc1ccccc1F)NCCCN1CCCCC1 | -2.3 | 3.1% | 15.0 | 6.4% | 19.2% | -0.5% | 8.1%
COc1ccc(-c2csc(-n3cccn3)n2)cc1 | -0.6 | 0.2% | -0.1 | -10.7% | -2.0%[15.4 µM] | -0.2% | 2.7%
CC1(C(=O)Nc2cccc3ccccc23)CCN1C(=O)Cc1ccc(Cl)cc1Cl (configuration not stated) | 4.6 | 2.2% | / | / | / | -0.9% | /
Cc1ccc(S(=O)(=O)N2CCC(C(=O)NNC(=O)c3ccccc3)CC2)cc1 | -0.7 | 3.4% | -3.0 | 13.8% | 6.9% | 0.9% | 7.3%
CCCc1nccn1S(=O)(=O)c1cc(OC)ccc1OC | 0.5 | -0.2% | 2.0 | 7.2% | 0.0% | -4.6% | -1.1%
O=C(NCCN1CCCCC1)c1ccc(/C=N/O)nc1 | 0.9 | 3.4% | -2.0 | -14.2% | -22.7% | 0.9% | 4.9%
CCc1ccc(OCC(=O)Nc2nnc(C3CCCC3)s2)cc1 | 2.3 | 2.7% | / | 13.9% | -4.5% | -0.5% | 2.2%
Cn1c(CNC(=O)c2ccco2)nnc1SCC(=O)Nc1ccc(Cl)cc1 | -3.8 | -0.2% | / | / | -27.8%[15.4 µM] | / | 4.4%
O=C(Nc1cc2c3c(c1)CC(=O)N3CCC2)c1ccc(F)cc1 | -2.6 | 0.3% | / | / | 5.8% | 2.1% | -6.1%
COc1cc(/C=C2\CC/C(=C\c3ccc(OCCO)c(OC)c3)C2=O)ccc1OCCO | 10.3 | 0.1% | ? | -16.3% | -7.3%[15.4 µM] | / | -14.0%
O=C(CNCC1CCCO1)Nc1ccc(N2CCCCCC2)cc1 (configuration not stated) | -2.1 | -0.7%[38.3 µM] | 1.8 | 56.2µM* | ? | 1.0% | -14.0%
CC(C)NC(=O)c1ccc(-c2cccc(C(F)(F)F)c2)o1 | 1.2 | -1.5% | 9.8 | 11.1% | -5.7% | ? | 2.3%
Cc1nc2ccc(OC(=O)c3ccccc3)cc2s1 | -3.2 | 3.4% | 2.5 | 2.4% | 9.3% | -2.9% | -1.8%
Cc1c(C)c2c(OCC(=O)Nc3cccnc3)cc3c(c2oc1=O)CCC(C)(C)O3 | 2.0 | 1.9% | 0.5 | -2.5% | / | -29.2% | -6.6%
CC(=O)Nc1ccc(NC(=O)c2ccc(NS(=O)(=O)c3cc(C(C)(C)C)cc(C)c3C)cc2)cc1 | 0.5 | 0.5% | 3.4 | 20.5% | 6.4%[15.4 µM] | 28.2µM* | -19.7%
COC(=O)c1cc2c(C)nn(C)c2s1 | -1.0 | -0.8% | 1.5 | 6.6% | 17.6%[15.4 µM] | / | -1.0%
CC(O)CNc1nc(Cl)c(C#N)s1 (configuration not stated) | -2.9 | 1.3% | -0.4 | 4.4% | -4.2%[15.4 µM] | / | 10.8%
CN1CCN(c2nc3c(c(=O)[nH]c(=O)n3C)n2Cc2ccc([N+](=O)[O-])cc2)CC1 | -2.7 | -0.1% | -3.6 | 8.1% | 1.6% | -0.2% | -7.6%
Cc1cn(S(=O)(=O)c2ccccc2[N+](=O)[O-])cn1 | 0.4 | -0.3% | -2.2 | 5.2% | -13.1%[15.4 µM] | / | /
Cc1cccc(N(C)S(=O)(=O)c2ccc3c(c2)CCC(=O)N3)c1 | -0.5 | 10.9%[38.3 µM] | 0.9 | 7.5% | -8.4% | 1.3% | 10.6%
CCS(=O)(=O)c1ncc(Cl)c(C(=O)Nc2ccc(S(=O)(=O)N3CCCC(C)C3)cc2)n1 (configuration not stated) | -10.7 | -1.2% | 17.4 | ? | -7.7%[15.4 µM] | / | ?
Cc1cc(C)c2c(C)c(C(=O)NCc3ccncc3)oc2c1 | 2.1 | -2.8%[38.3 µM] | 2.0 | 8.7% | 34.0% | ? | -6.2%
O=[N+]([O-])c1ccc(N2CCN(S(=O)(=O)c3ccc(Cl)cc3)CC2)cc1NCc1cccnc1 | -2.5 | -1.6% | 1.4 | 5.8% | 9.9% | 0.3% | -13.8%
COc1ccc(-n2ncc3c(N4CCC(C(N)=O)CC4)ncnc32)cc1 | 0.8 | 6.8%[38.3 µM] | -1.2 | 12.2% | ? | 0.5% | 10.7%
CC(=O)c1cccc(-c2ccnc3c2CC(C(=O)Nc2ccc4c(c2)OCO4)O3)c1 (configuration not stated) | 3.8 | 7.2% | / | / | / | 0.1% | /
CC(C)CN(C1CCS(=O)(=O)C1)S(=O)(=O)c1ccc2ccccc2c1 (configuration not stated) | -3.5 | 2.3% | / | / | 26.4% | -2.1% | -0.7%
CCCCN1C[C@H](Cc2ccccc2)[C@@H](CC(=O)NCc2ccc(OC)cc2)C1=O | -3.7 | 0.2% | -3.8 | 3.5% | 2.1% | -1.3%&1.2% | -7.4%
Cn1c(SCC(=O)c2ccccc2)ncc(C(=O)Nc2ccccc2)c1=O | -2.6 | 0.3% | / | / | 5.1%[15.4 µM] | 1.2% | -14.8%
Clc1cccc(-c2ccc(C=Nc3ccc(N4CCOCC4)cc3)o2)c1 | 4.0 | 2.4% | 6.0 | -20.4% | -2.4% | -1.8% | -11.9%
O=C(COC(=O)c1cccc(Cl)c1)Nc1cc(Cl)ccc1Oc1ccccc1 | 3.0 | 4.6% | 3.2 | 2.6% | -39.9%[inhibitor] | 1.0% | -7.9%
CCC(CC)NC(=O)CN1CCN(S(=O)(=O)c2cccs2)CC1 | 1.0 | 0.5% | / | / | 12.1% | -0.7% | 7.8%
CCc1ccc(/C=C2/SC(=S)N(CC(=O)Nc3nc4ccccc4s3)C2=O)cc1 | -3.7 | 0.8% | 11.7 | -18.0% | 0.7% | -0.9% | -17.5%
CCOc1cc(C=C(C#N)C#N)ccc1Oc1ccc([N+](=O)[O-])cn1 | -1.2 | -0.4% | -0.9 | -17.1% | 17.3% | -2.0% | -9.2%
CC(C)OC(=O)CCC1(C(=O)O)CCC(=O)NC1 (configuration not stated) | 0.3 | ? | -2.9 | 3.8% | -8.3% | 2.2% | 3.3%
Nc1nc(N2CCN(C(=O)c3ccco3)CC2)nc2ccc(Br)cc12 | 4.4 | -2.8% | -1.3 | ? | 3.2% | 3.4% | -15.0%
COc1ccc(CCN(C)Cc2c(O)ccc3cc(Br)ccc23)cc1OC | 1.6 | 1.2% | 2.7 | -10.1% | 20.9%[15.4 µM] | / | 3.1%
O=[N+]([O-])c1cccc(NN=Nc2ccccc2)c1 | -2.3 | 0.2% | 6.0 | -10.0% | -34.2%[inhibitor] | -0.6% | -0.9%

Retrieved by structure from the list above (3):
SMILES | D2 agonist | PINK1 expr mod | Menin-MLL FL inh | Sfp PPTase inh | gsp ag | ClpP mod | gsp antag
CCCCN1C[C@H](Cc2ccccc2)[C@@H](CC(=O)NCc2ccc(OC)cc2)C1=O | -3.7 | 0.2% | -3.8 | 3.5% | 2.1% | -1.3%&1.2% | -7.4%
COc1ccc(-n2ncc3c(N4CCC(C(N)=O)CC4)ncnc32)cc1 | 0.8 | 6.8%[38.3 µM] | -1.2 | 12.2% | ? | 0.5% | 10.7%
Nc1nc(N2CCN(C(=O)c3ccco3)CC2)nc2ccc(Br)cc12 | 4.4 | -2.8% | -1.3 | ? | 3.2% | 3.4% | -15.0%
